# VACV Venus inh: inhibitors of vaccinia virus (Venus reporter); Vaccinia virus Venus reporter expression, fluorescence; AID 720580; Potency, µM (top dose mostly 36.5 µM), inactives show at the highest dose activity change, negative = inhibition, most hits filed as inhibitors; 330,000 compounds, 0.46% hits; active means well fitted inhibition curve with a large enough effect; inconclusive means small, poorly fitted or top-dose-only effect; inactive means no such curve, though single readings can be large or run the other way; tested in A549 cells; also: nearly all actives have a fitted effect of over 30% in size; inactives centre near -10
# VACV mCherry inh: vaccinia inhibition (mCherry reporter); Potency, µM (highest dose often 36.5 µM), without a hit: top-dose activity change, negative = inhibition, hits mostly inhibitors; 310,000 compounds, 0.63% hits; AID 720579; Vaccinia virus mCherry reporter infection, fluorescence; about a quarter of the inactives have no number; active = well fitted inhibition curve with a large enough effect; inconclusive = small, poorly fitted or top-dose-only effect; inactive = no such curve, though single readings can be large or run the other way; tested in A549 cells; also: nearly all actives have a fitted effect of over 35% in size; inactives centre near -10
# * hit, by the source's call; i = inactive; u = inconclusive; x = no result given; & = joins results of further samples; [ ] = another dose, or the depositor's remark. % is scaled to controls: 0 for no effect and ±100 for the full control effect; potency is read from the fitted curve at half-maximal effect.
# Under each structure: VACV Venus inh	VACV mCherry inh
> COCCn1c(SCc2nc3ccccc3c(=O)[nH]2)nc2ccccc2c1=O
→ 3%	7%
> CC1CCCN(S(=O)(=O)c2ccc(NC(=O)CNC3CCCC3)cc2)C1 (stereo not drawn)
→ -10%	-12%
> COc1cccc(NC(=O)c2cc(C(=O)Nc3cccc(OC)c3)n(C)n2)c1
→ -25%	-17%[1.46 µM]
> CCCCC(=O)Nc1sc(C(=O)N(CC)CC)c(C)c1C(=O)OC
→ -13%	-20%
> OCCN(Cc1ccccc1)C(=S)Nc1ccc(Cl)cc1Cl
→ -8%	-23%
> C=CCOc1ccc(/C(O)=C2/C(=O)C(=O)N(CCCN3CCOCC3)C2c2ccccc2)cc1 (stereo not drawn)
→ 5%	-8%
> COc1cccc(CNC(=O)c2ccc(C(=O)NCc3cccc(OC)c3)cc2)c1
→ -12%	-11%
> O=C(CSc1nc(-c2ccccc2)c(-c2ccccc2)o1)NC1CCS(=O)(=O)C1 (stereo not drawn)
→ -5%	-21%
> CCC(C)NC(=O)CNC(=S)N(Cc1ccccc1)Cc1cccnc1 (stereo not drawn)
→ -10%	-16%
> O=C(Cn1nc(C(=O)O)c2ccccc2c1=O)Nc1cccc(Br)c1
→ -6%	u
> O=C(Cc1ccccc1[N+](=O)[O-])NCc1ccncc1
→ 1%	-12%
> CC(C)c1nc(CNC(=O)C2CCC(=O)N(CCc3cccc(F)c3)C2)cs1 (stereo not drawn)
→ -10%	-15%
> C[n+]1ccc(/C=C/c2c[nH]c3ccccc23)cc1
→ -11%	u
> O=c1[nH]c(Cc2ccc(Cl)cc2)nc2ccccc12
→ -15%	i
> CC(Sc1ccccn1)C(=O)Nc1ccc2c(c1)OCCO2 (stereo not drawn)
→ -2%	-14%
> O=C(COC(=O)c1c2c(nc3ccccc13)CCN(Cc1ccccc1)C2)Nc1c(F)cccc1F
→ -18%	u
> COc1ccc(-c2coc3c(C(=O)NCCN4CCOCC4)cccc23)c(C)c1
→ -29%	1%
> COc1ccc(CNC(=O)C(=O)NCC2OCCN2C(=O)c2ccc(OC)cc2)cc1 (stereo not drawn)
→ -8%	i
> O=C(Nc1cccnc1Cl)c1cccs1
→ 3%	-14%
> O=c1[nH]c(C2CCN(S(=O)(=O)c3ccc4c(c3)OCCO4)CC2)nc2c1nnn2Cc1ccccc1
→ -30%	-11%
> Cc1ccccc1NC(=O)CSc1nc(-c2ccccc2C)nc2cc(=O)[nH]n12
→ 2%	-15%
> CSc1ccccc1C(=O)NCc1ccccc1C
→ -21%	-4%
> CC(CN1CCOCC1)OC(=O)c1ccccc1Cl (stereo not drawn)
→ -9%	-10%
> Cc1ccc(-c2nn(-c3ccccc3)cc2/C=C(\C#N)C(=O)NCc2ccccc2)cc1
→ -5%	i
> Cc1noc(C)c1COc1ccc(C(=O)NNC(=O)c2ccccc2)cc1
→ -18%	u
> Cc1ccc(NS(=O)(=O)c2ccc(C(=O)N3CC(C)CC(C)C3)cc2)cc1 (stereo not drawn)
→ -19%	-3%
> Cc1nn(-c2ccccc2)c2sc(C(=O)N(Cc3ccco3)C(C)C(=O)NC(C)(C)C)cc12 (stereo not drawn)
→ -12%	x
> Cc1ccsc1/C=N/NC(=O)c1ccc(-n2cccc2)cc1
→ -11%	-4%
> NNC(=O)CCn1nnc2ccccc21
→ -7%	-13%
> COc1ccc(OCCNc2cc(N3CCCCC3)ccc2[N+](=O)[O-])cc1
→ -30%	u

# (listing goes on)
# Under each structure: VACV Venus inh	VACV mCherry inh
> CCOC(=O)C(NC(C)=O)C(=O)Nc1ccc(OC)cc1 (stereo not drawn)
→ -18%	-11%
> CC1(C(=O)NS(=O)(=O)c2cccc(OC(F)F)c2)CCN1C(=O)c1ccccc1CCc1ccccc1 (stereo not drawn)
→ -5%	23%
> c1ccc(CCNCc2ccco2)nc1
→ -5%	-17%
> Cc1c(N/N=C(\C#N)C(=O)c2ccccc2)c(=O)n(-c2ccccc2)n1C
→ -27%	13µM*
> COc1ccc(NC(=O)C(=O)NNC(=O)c2cccs2)c(OC)c1
→ 6%	-4%
> COc1ccc(C2CC(c3ccccc3)=NN2C(=O)COC(=O)c2ccc(S(C)(=O)=O)cc2)cc1 (stereo not drawn)
→ -18%	-27%
> O=C(COC(=O)c1cncc(Br)c1)Nc1ccc(F)c(F)c1F
→ -11%	-1%
> Cc1cc2cc(CNC(=O)Nc3ccc(Cl)c(Cl)c3)ccc2n1C
→ 42%[activator]	1%
> COc1cc(OC)cc(C(=O)NNC(=O)c2cc3c(s2)CCCC3)c1
→ -1%	-2%
> Cn1c(C(=O)O)ccc1S(=O)(=O)N1CCCCCC1
→ 1%	-3%
> CC(=O)c1cccc(NC(=O)CSc2nc(C3CC3)nc3ccccc23)c1
→ -18%	i
> Cc1nn(Cc2ccc([N+](=O)[O-])cc2)c(=O)n1N(C)c1ncc(C(F)(F)F)cc1Cl
→ -11%	-13%
> Cc1ccsc1C1NC(=O)c2c(sc3c2CCCC3)N1 (stereo not drawn)
→ -4%	-17%
> CCN(CC)CC#CC(OC)(c1ccccc1)c1ccccc1
→ -10%	-14%
> Cc1ccccc1-c1nnn(CC(=O)Nc2sc3c(c2C#N)CCC(C(C)(C)C)C3)n1 (stereo not drawn)
→ -4%	-1%
> O=C(COC(=O)c1cccs1)Nc1nc(-c2ccccc2)cs1
→ -10%	-9%
> CCN(CC)C(=S)Sc1c(-c2ccccc2)c2cc(Cl)ccc2[nH]c1=O
→ -21%	x
> COc1cc(C(C)=O)ccc1OCCCN1CCC(Cc2ccccc2)CC1
→ -7%	i
> COc1ccc2ccccc2c1/C=N\n1c(C)cc(C)c(C(N)=O)c1=O
→ u	-21%
> Cc1cc(C)nc(NC(=O)C(C)C)n1
→ -15%	x
> Cc1ccc(C)c(NC(=O)C2CCCN2S(=O)(=O)c2ccc3c(c2)n(C)c(=O)c(=O)n3C)c1 (stereo not drawn)
→ -6%&-5%	-2%&-11%
> CCc1noc(C)c1C(=O)NNC(=O)COc1ccc(Br)cc1
→ -3%	-7%
> O=C(Nc1ccc(Cl)c(S(=O)(=O)N2CCOCC2)c1)c1ccc2c(c1)OCO2
→ -26%	-16%
> Cc1ccc(N2C(=O)SC(N(CC(=O)O)c3ccc(C)cc3)C2=O)cc1 (stereo not drawn)
→ 0%	-11%
> O=[N+]([O-])c1cc(/C=N/N2CCN(c3ccccc3)CC2)ccc1Cl
→ -7%	-4%
> Cc1ccc(-n2nc(C)c3c(C)cc(=O)n(CC(=O)NCc4ccc(OC(C)C)cc4)c32)cc1
→ -10%	-3%
> Cc1c2cnn(CC(=O)N3CCC4(CC3)OCCO4)c(=O)c2c(C)n1Cc1ccccc1
→ -1%	x
> Cc1ccc(CCNC(=O)c2cc(S(=O)(=O)N3CCCCC3)c[nH]2)cc1
→ -14%	-12%
> COc1ccc(Br)cc1CNC(=O)Cc1cccs1
→ -3%	-14%
> CCCN(CCC)S(=O)(=O)c1ccc(C(=O)Nc2nnc(-c3cccc(OC)c3)o2)cc1
→ -14%	u

# Next part
# Under each structure: VACV Venus inh	VACV mCherry inh
> CCOc1ccccc1NC(=S)N1CCC(NC(=O)C(C)(C)C)CC1
→ -16%	-1%
> O=[N+]([O-])c1ccc(/C=[N+](\[O-])[C@@H]2CCCC[C@@H]2/[N+]([O-])=C/c2ccc([N+](=O)[O-])o2)o1
→ -8%	i
> COc1ccc(Cc2c(-c3ccccc3)nc3c4ccccc4ccn23)c(C)c1
→ 9%	24%
> Cc1ccc(OC(=O)Cn2c(C(F)(F)F)nc3ccccc32)cc1
→ -7%	x
> COc1ccc(/C=N/NC(=O)c2cccc(Br)c2)cc1CN1CCOCC1
→ -15%	-20%
> NS(=O)(=O)c1ccc(NC(=O)CN2CCc3ccccc3C2)cc1
→ -8%	-12%
> O=C1CC2(CCCC2)CC(=O)N1CCCCN1CCN(c2ncccn2)CC1
→ -12%	-11%
> Cc1cccc(-n2ncc3c(Nc4ccc(Oc5ccc(Cl)cc5)cc4)ncnc32)c1
→ 3%	-15%
> CCOC(=O)C1CCN(c2c([N+](=O)[O-])c(C(Cl)Cl)nn2-c2ccccc2)CC1
→ -9%	-17%
> CC(=O)Nc1ccc(-c2ccnc3c2CC(C)(C(=O)NCc2ccco2)O3)cc1 (stereo not drawn)
→ u	-2%
> O=C1NNC(c2ccccc2)=N/C1=C\c1ccccc1Cl
→ -13%	i
> COc1ccccc1CNC(=O)C12CC3CC(CC(C3)C1)C2
→ -14%	i
> COCCCn1cc(C(=O)c2cc(OC)ccc2OCC(=O)Nc2cc(C)on2)cc(C#N)c1=O
→ -5%	i[1.46 µM]
> Nc1c(C(=O)NCc2ccco2)c2nc3ccccc3nc2n1CCc1ccc(F)cc1
→ -25%	u
> COCCNC(=O)C1(C)CCCN(Cc2ccccc2N(C)C)C1 (stereo not drawn)
→ -4%	1%
> Cc1ccc(-n2nc3c(N4CCC(C(=O)NC(C)c5ccccc5)CC4)nnc(C)c3c2C)cc1 (stereo not drawn)
→ -26%	-6%
> O=c1[nH]cnc(CN2CCCCC2)c1O
→ -15%	-9%
> CCOC(=O)c1ccc(O)c(-n2cc3c(c2-c2ccccc2)c(=O)n(C)c(=O)n3C)c1
→ -10%	17%
> CCc1ccc(S(=O)(=O)Nc2ccc(-c3ccc(N4CCCCCC4)nn3)cc2)cc1
→ -7%	-10%
> COc1ccc(Cc2nc3ccc(C(=O)NCc4cc(C)no4)cc3o2)cc1OC
→ -14%	i
> Cc1ccc(C(=O)Nc2nnc(S(=O)(=O)N3CCOCC3)s2)cc1
→ -8%&-4%	-22%&3%
> FC(F)(F)c1cccc(-c2cc3ccccc3nc2N2CCCC2)c1
→ -16%	x
> O=C(NCCc1ccc(F)cc1)C(=O)Nc1cc2c3c(c1)CC(=O)N3CCC2
→ -11%	-18%
> CC1CCN(C(=O)CSc2nc(-c3ccc(C(C)C)cc3)no2)CC1
→ -10%	-11%
> COc1ccc([N+](=O)[O-])cc1NS(=O)(=O)c1ccccc1
→ -10%	i
> COc1cc2c(cc1OC)CN(Cc1cc(=O)oc3cc(C)c(C)cc13)CC2
→ 2%	i
> CCc1c(C)[nH]c2c1C(=O)C(CN1CCOCC1)CC2 (stereo not drawn)
→ -16%	i
> O=C(COc1ncnc2ccccc12)N1CCOCC1
→ -12%	x
> Cc1ccc(C)c(S(=O)(=O)N2CCN(C(=O)Cn3c(=O)cnc4ccccc43)CC2)c1
→ -19%	-9%
> O=C(CSc1nnc2ccc(-c3ccco3)nn12)Nc1ccccc1F
→ -9%	-2%

# (next part)
# Under each structure: VACV Venus inh	VACV mCherry inh
> CCN1C(=O)[C@H]2[C@@H](c3ccc(-c4ccc(F)cc4)cc3)N3CCCC[C@@]3(C(=O)OC)[C@H]2C1=O
→ u	i
> CCC(Oc1ccccc1)C(=O)NCc1ccc(S(N)(=O)=O)cc1 (stereo not drawn)
→ -9%	-8%
> COc1cccc(NS(=O)(=O)c2ccc3c(c2)N(C)C(=O)CC(=O)N3C)c1
→ -11%	-2%
> Cc1ccc(N2CC(C(=O)OCC(=O)Nc3cc(C)on3)CC2=O)c(C)c1 (stereo not drawn)
→ -8%	-6%
> O=C1c2ccccc2C(=O)N1c1ncc(Cc2ccc(Cl)cc2)s1
→ -7%	-4%
> CCc1ccc(NC(=O)CN2CCCN(S(=O)(=O)c3ccc(F)cc3)CC2)cc1
→ -5%	-17%
> COCCNC(=O)C1CCC(CNS(=O)(=O)c2cccc3nsnc23)CC1 (stereo not drawn)
→ -15%[7.34 µM]	-1%[7.34 µM]
> Cc1nn(CCC(=O)NCc2cccc(Br)c2)c(=O)c2nn(-c3ccccc3)c(C)c12
→ -16%	-19%
> Cc1ccc(CNC(=O)c2ccc(N3CCC4(CC3)CC(c3ccccc3)=NO4)c(NC(=O)c3cccc(C)c3)c2)cc1
→ -9%	6%
> Cc1ccc(S(=O)(=O)N2CC=C(C(=O)NC3CC3)CC2)cc1
→ -8%	-9%
> Cc1ccc(OCC(=O)OCC(=O)Nc2ccc3c(c2)OCO3)cc1C
→ -11%	i
> CCCCN(C=O)c1c(CC)nc2ccc(C(=O)N3CCN(C(C)=O)CC3)cn12
→ -1%	57%[activator]
> Cc1ccc(NC(=O)C2CCCN(S(=O)(=O)c3c(C)noc3C)C2)c(C)c1 (stereo not drawn)
→ -7%	-16%
> CC(C(=O)NCc1ccccc1)n1c(-c2ccc3c(c2)CCO3)nc2ccccc21 (stereo not drawn)
→ -11%	6%
> Cc1ccc2cc(CCNC(=O)C3CCCC3)c(=O)[nH]c2c1
→ -14%	i
> Cc1ccc2[nH]cc(C(=O)NCc3cccs3)c(=O)c2c1
→ -28%	-24%
> O=C(COc1ccc(C(=S)N2CCCC2)cc1)Nc1ccc(F)cc1
→ -22%	-28%
> O=C(Nc1ccc(N2CCOCC2)nc1)c1cccs1
→ -14%	i
> O=C1CCC(C(=O)NC2(C(=O)NC3CCCCC3)CCCCC2)N1 (stereo not drawn)
→ -5%	-19%

# Grouped by structure: those above with a furan ring, fused or not.
# Under each structure: VACV Venus inh	VACV mCherry inh
> COc1ccc(-c2coc3c(C(=O)NCCN4CCOCC4)cccc23)c(C)c1
→ -29%	1%
> Cc1nn(-c2ccccc2)c2sc(C(=O)N(Cc3ccco3)C(C)C(=O)NC(C)(C)C)cc12 (stereo not drawn)
→ -12%	x
> c1ccc(CCNCc2ccco2)nc1
→ -5%	-17%
> O=[N+]([O-])c1ccc(/C=[N+](\[O-])[C@@H]2CCCC[C@@H]2/[N+]([O-])=C/c2ccc([N+](=O)[O-])o2)o1
→ -8%	i
> CC(=O)Nc1ccc(-c2ccnc3c2CC(C)(C(=O)NCc2ccco2)O3)cc1 (stereo not drawn)
→ u	-2%
> Nc1c(C(=O)NCc2ccco2)c2nc3ccccc3nc2n1CCc1ccc(F)cc1
→ -25%	u
> O=C(CSc1nnc2ccc(-c3ccco3)nn12)Nc1ccccc1F
→ -9%	-2%
